# MgrA DNA FP – modulators of Staphylococcus aureus MgrA DNA binding; fluorescence polarization; inhibition, %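 (about 10 µg/mL by stock and volumes)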; hit rate 0.13% among 84,000; AID 602314;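 active = above 50% in either of two replicates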;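 note: 0% = protein plus DNA without compound and 100% = DNA alone without protein; higher means less MgrA bound to DNA so lower polarization; one replicate is shown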
# Sa helicase inh – S. aureus DNA helicase inhibition. purified S. aureus helicase, fluorescence unwinding assay; about half of the hits fall short of the stated cut. inhibition, %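 (tested at about 80 µM)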. hit rate 0.05% among 120,000. AID 485395;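 active = both duplicates at 50% or more, or one of them with a favoured structure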;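 note: 0% = mean of negative control wells and 100% = mean of positive control wells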
# * = called active by the depositor; . = not tested or not shown. Some of the compounds tested; the hit share may differ from the screen's.
# The line under a structure holds: MgrA DNA FP | Sa helicase inh
- CC(NC(=O)Cn1ncc2ccsc2c1=O)C12CC3CC(CC(C3)C1)C2 (stereo unspecified)
  1.7 | -7
- O=C(COc1ccccc1OC(=O)c1ccc(Cl)cc1)NCc1ccccc1Cl
  5.0 | .
- CCOC(=O)C1=C(CSc2nnc(C)s2)NC(=O)NC1c1ccccc1OC (stereo unspecified)
  -1.5 | -8
- CCOC(=O)CSc1nnc(-c2cc(OC)c(OC)c(OC)c2)o1
  . | 3
- O=C(CN1C(=O)CSc2cc(S(=O)(=O)N3CCCC3)ccc21)NC1CCCCCC1
  -2.7 | 1
- NC(=O)C1CCN(C(=O)c2cccc3ccccc23)CC1
  -1.3 | 20
- Cc1ccc(C2CC(c3cccs3)=NN2C(=O)CSc2nnc(CNC(=O)c3ccco3)n2-c2ccccc2)cc1 (stereo unspecified)
  . | 16
- O=C1CC(c2cccc(O)c2)C2=C(CC(c3cccs3)CC2=O)N1 (stereo unspecified)
  . | 10
- CC(=O)Oc1ccc2oc(=O)sc2c1
  1.8 | 21
- COc1ccc(-c2nnc(SC(C(=O)NC(N)=O)c3ccccc3)n2CC2CCCO2)cc1 (stereo unspecified)
  . | 10
- O=C(Cn1cc(C(F)(F)F)ccc1=O)N1CCN(S(=O)(=O)c2ccc(Cl)cc2)CC1
  . | 10
- CC(=O)c1cc2cc([N+](=O)[O-])ccc2o1
  -2.9 | .
- C=CCN1C(c2ccc(C)cc2)=CS/C1=C(\C#N)C(=O)OCC
  . | 0
- O=S(=O)(c1cccs1)N1CCOCC1
  . | -5
- CC(C)(C)c1cc(C(C)(C)C)n(-c2cnc3ccccc3n2)n1
  -2.7 | .
- CCOc1ccc(-c2nnc3ccc(SCC(N)=O)nn23)cc1
  . | 21
- O=C(Nc1ccccc1)N1CCC(n2c(=O)[nH]c3ccccc32)CC1
  -0.1 | 3
- CN1C(=O)SC(Cc2ccc(N)cc2)C1=O (stereo unspecified)
  0.3 | .
- COc1cccc(C(=O)Nc2cccc(C)c2)c1
  -0.4 | 14
- CC(=O)OCOC(=O)CNc1ccccc1OCCOc1ccccc1NCC(=O)OCOC(C)=O
  -0.3 | .
- O=C(NC12CC3CC(CC(C3)C1)C2)c1cccnc1
  1.6 | 0
- Cc1cc(C)n(C(=O)CNc2ccccc2Cl)n1
  -1.1 | 11
- O=C(c1nnc(Cc2ccc(F)cc2Cl)o1)N1CCN(c2ccccn2)CC1
  . | -10
- CCOC(=O)N1CCC(NC(=O)NCc2noc3ccccc23)CC1
  0.0 | 4
- c1ccc(CNc2ccncc2)cc1
  . | 7
- CC(C)S(=O)(=O)c1ccc(Cl)cc1
  -0.8 | 7
- CCn1c(SC)nnc1-c1c[nH]c2ccccc12
  . | 16
- COC(=O)COc1ccc(Oc2nc(NCC(C)C)nc(N3CCOCC3)n2)nn1
  . | 6
- COc1ccc(CNC(=O)COC(=O)Cc2ccc(OC)cc2)cc1
  . | -14
- CCn1c(CC(=O)Nc2ccccc2)nnc1SCC(=O)N1CCc2ccccc21
  -0.3 | 2

# 2 entries picked at random from those above, as already listed:
# The line under a structure holds: MgrA DNA FP | Sa helicase inh
- CC(=O)c1cc2cc([N+](=O)[O-])ccc2o1
  -2.9 | .
- NC(=O)C1CCN(C(=O)c2cccc3ccccc23)CC1
  -1.3 | 20

# Later entries
# The line under a structure holds: MgrA DNA FP | Sa helicase inh
- Oc1c(Cl)cc(Cl)cc1C=Nc1ccc(OC(F)(F)F)cc1
  7.6 | .
- COc1ccc(C(=O)/C=C/Nc2ccc(Cl)cc2F)cc1
  2.8 | .
- COc1ccc(CNCc2ccccc2)cc1
  . | 20
- Brc1ccc(-n2cnnc2)cc1
  . | 11
- CSc1nc(N)c(C#N)cc1C#N
  -3.9 | 10
- CC(C)(C)N1COc2ccc3c4c(oc3c2C1)C(=O)c1ccccc1C4=O
  . | 4
- CC(C)CNC(=O)c1ccccc1
  -1.9 | 2
- CN(Cc1cccs1)S(=O)(=O)c1ccc(Br)cc1Cl
  . | -4
- Cc1ccc(Cn2c(=O)c3ccccc3n3c(SCC(=O)N(C(C)C)C(C)C)nnc23)cc1
  . | 16
- CCn1nc(C)cc1/C(N)=N/OC(=O)c1cc(Cl)cc(Cl)c1
  . | 13
- CCN(CC1COc2ccccc2O1)C(=O)c1ccc2c(c1)SC1=NS(=O)(=O)CCN12 (stereo unspecified)
  . | -18
- COc1ccc(-c2c(C)nn3c(C)cc(C)nc23)cc1OC
  . | -14
- CCOC(=O)c1cnc2ccccc2c1Nc1ccc(N2CCOCC2)cc1
  0.2 | 27
- COc1ccc(NC(=O)CC(NCc2ccccc2)C(=O)O)cc1 (stereo unspecified)
  . | 15
- CCCOc1cc(C)c(S(=O)(=O)NCCOC)cc1C
  2.3 | 24
- CSc1ncccc1C(=O)NC(C)(C#N)C(C)C (stereo unspecified)
  -1.1 | .
- CC1(C)OC(=O)N(CC(=O)Nc2ccc(F)cc2)C1(C)O (stereo unspecified)
  -3.2 | -8
- CCCN(CCC)S(=O)(=O)c1ccc(C(=O)Nc2cc(C(F)(F)F)ccc2Cl)cc1
  -5.5 | .
- COc1cc2c(cc1OC)CN(c1nnnn1-c1ccccc1)CC2
  . | 11
- O=c1c2nnn(Cc3ccc(F)cc3)c2ncn1Cc1ccc(F)cc1
  4.1 | 19
- CC(C)(C)NC(=O)n1ccc(-c2ccc(-n3ccnc3)cc2)n1
  2.5 | .
- Fc1ccc(-n2cc(-c3ccccc3)c3c(NCCC4=CCCCC4)ncnc32)cc1
  2.0 | 5
- O=C(O)c1cnccc1C(F)(F)F
  -1.5 | .
- O=C(c1ccco1)N1CCN(C(=O)c2sc3ccccc3c2Cl)CC1
  -0.4 | .
- Cc1ccc(O)c(NC(=O)c2cccnc2Cl)c1
  . | -28
- CCN(CC)Cc1cc(Nc2ccnc3cc(Cl)ccc23)ccc1O
  -7.3 | .
- O=C1CCc2cc(S(=O)(=O)NCCC(=O)NC3CCCCCCC3)ccc2N1
  0.1 | 10
- Cc1ccc(C(=O)COC(=O)CN2C(=O)C3CC=CCC3C2=O)cc1C (stereo unspecified)
  0.3 | 27
- COC(=O)c1ccccc1NC(=O)/C=C/C(=O)O
  -2.1 | .
- O=C(CSc1ncccn1)Nc1ccc2c(c1)OCCCO2
  . | -9

# Next compounds:
# The line under a structure holds: MgrA DNA FP | Sa helicase inh
- CC1(C)NC(=O)N(CN2CCCCC2)C1=O
  . | 10
- Cn1c(Sc2c3c(nc4ncnn24)CCC3)nnc1-c1ccccc1
  2.7 | .
- O=C(NC(C(=O)O)C12CC3CC(CC(C3)C1)C2)c1ccc(F)cc1 (stereo unspecified)
  0.2 | 5
- CC(Oc1ccc(Cl)cc1Cl)C(=O)Nc1ccc(Cl)cn1 (stereo unspecified)
  2.9 | 0
- O=C(Cc1ccccc1)OCC(=O)c1cccc(C(F)(F)F)c1
  -0.1 | 9
- CCCn1c(SC(C)C(=O)Nc2ccc(C#N)cc2)nc2ccccc21 (stereo unspecified)
  . | -10
- CCOC(=O)c1[nH]c2ccccc2c1NC(=O)CC1CCCCC1
  . | 3
- CC(=O)Oc1c(Sc2ccccc2)c(C)nn1-c1ccccc1
  . | 25
- COc1ccc(Br)c(C(=O)NN)c1
  -2.3 | .
- Cc1ccc(C)c(NC(=O)C2CCCN(S(=O)(=O)c3c(C)nn(C)c3C)C2)c1 (stereo unspecified)
  . | 11
- Cc1cccc(NS(=O)(=O)c2ccc(-c3cc(C(F)(F)F)no3)s2)c1
  . | 5
- CCC(=O)Nc1nc(NC(=O)CC)c2ncn(C(=O)CC)c2n1
  -3.0 | 4
- Cc1ccc2c(c1)C1OCCC1C(c1ccco1)N2 (stereo unspecified)
  1.2 | -10
- O=C(CCC(=O)N1CCN(c2ccc(F)cc2)CC1)c1ccc(Cl)cc1
  . | 5
- Nc1ccccc1Sc1ncc(C(F)(F)F)cc1Cl
  0.7 | .
- O=C(O)C1=COCCO1
  -3.2 | 18
- O=C(COC(=O)c1cccc(Cl)c1Cl)Nc1ccc2[nH]c(=O)[nH]c2c1
  . | -20
- N#CCc1nc(CCNc2ccccc2)no1
  . | -2
- O=C(Nc1ccc(-c2nc3cc(NC(=O)C4CCCCC4)ccc3o2)cc1)C1CCCCC1
  0.7 | 5
- Cc1ccc(C(=O)Nc2noc3ccccc23)cc1
  . | -16
- CCOC(=O)c1sc2sc(-c3ccn[nH]3)c(C)c2c1C
  -0.6 | .
- O=[N+]([O-])c1cccnc1NCc1ccc(Cl)cc1
  -0.4 | .
- NC(=O)c1ccccc1OCC(=O)NS(=O)(=O)c1ccc(Cl)cc1
  -1.2 | 4
- O=C1CCC(=O)N1CNC1CCCCC1
  2.3 | 0
- O=C(Nc1ccccc1)C1CCN(C(=O)Nc2ccccc2)CC1
  . | 13
- COc1ncnc2sc3c(c12)CCCC3
  -2.4 | .
- O=c1[nH]c2ccccc2[n+]([O-])c1-c1ccccc1
  . | -6
- O=c1oc2ccccc2n1Cc1ccc(C(F)(F)F)cc1
  2.6 | .
- N/C(=N\NS(=O)(=O)c1ccccc1)c1ccccn1
  . | 19
- NC(=O)C1CCN(c2nnnn2-c2ccccc2)CC1
  . | -2

# Additional results
# The line under a structure holds: MgrA DNA FP | Sa helicase inh
- CC(Oc1ccc(I)cc1)C(=O)Nc1ccc(S(N)(=O)=O)cc1 (stereo unspecified)
  3.2 | .
- COc1cccc(OC)c1OC(=O)/C=C/c1ccc(C)o1
  . | -10
- CC(=O)NCc1ccc2[nH]c3c(c2c1)CCCC3
  . | 14
- O=C(c1ccccc1)N(Cc1ccc(Cl)cc1)Cc1ccco1
  -1.1 | 1
- O=C(NC(=S)NC1CCCc2ccccc21)c1ccco1 (stereo unspecified)
  . | -10
- Cc1cc(NC(=O)COC(=O)Cc2ccsc2)ccc1Br
  -0.5 | 28
- CCOc1cc(C=NCCN2Cc3ccccc3C2=O)ccc1O
  0.6 | -1
- CC[n+]1c(C)csc1Nc1ccc(C)cc1C
  0.4 | .
- Cc1ccc(C)c(NC(=O)CN(C)C(C)C(=O)N2CC(C)CC(C)C2)c1 (stereo unspecified)
  . | 4
- CCNS(=O)(=O)c1ccc(NC(=O)c2ccc3c(c2)OCO3)cc1
  4.3 | 6
- N#CC(C(=O)c1ccco1)c1ccccn1 (stereo unspecified)
  -2.0 | -5
- CC(C)(C)NC(=O)c1cc2c(s1)CCCCC2
  3.9 | -4
- COC(=O)c1ccc(S(N)(=O)=O)o1
  -0.8 | 3
- Cc1cc(C)c(C2C(C#N)=C(N)Oc3n[nH]c(C)c32)cc1COc1ccccc1Cl (stereo unspecified)
  1.1 | 13
- O=C(Nc1ccc(-c2cn3ccsc3n2)cc1)c1cccs1
  . | 21
- CCCC1Cc2nc3sc(C(=O)OCC)c(N)c3cc2CO1 (stereo unspecified)
  . | 15
- CCc1ccc(OC(=O)/C=C/c2ccco2)cc1
  5.2 | -2
- Cc1ccc(CNCCN2CCOCC2)o1
  -1.9 | 14
- CC(C)(C)C(=O)Nc1cccc(-c2nnco2)c1
  3.0 | .
- C=CCNCc1nc(-c2cccc(C)c2)no1
  . | -21
- O=C(Cn1ccc(C(F)(F)F)n1)Nc1ccc(Cl)cc1
  -5.8 | .
- O=C([C@H](Cc1ccccc1)N1Cc2ccccc2C1=O)N1CCN(c2ccccc2)CC1
  2.4 | 14
- N#CCc1ccc(OCc2ncc(C(F)(F)F)cc2Cl)cc1
  -0.4 | .
- c1ccc(CN2CCC(NCC3CCCO3)CC2)cc1 (stereo unspecified)
  -2.8 | -3
- CCC(C)NC(=O)C1COc2ccccc2O1 (stereo unspecified)
  -0.4 | 0
- COc1ccc(S(=O)(=O)NCC2CCC(C(=O)O)CC2)cc1 (stereo unspecified)
  0.5 | 13
- O=C(Nc1cccc(C(F)(F)F)c1)Nc1ccc2c(c1)OCO2
  . | 14
- CC(NC(=S)Nc1ccc(S(N)(=O)=O)cc1)c1ccc2c(c1)OCO2 (stereo unspecified)
  0.5 | 6
- COC(=O)c1ccccc1NC(=O)C(F)(F)F
  -3.6 | .
- O=C(Cn1ncc2c(=O)oc3ccccc3c21)NCCCN1CCN(c2ccccc2F)CC1
  0.4 | 17

# As a short view, 2 of the compounds above.
# The line under a structure holds: MgrA DNA FP | Sa helicase inh
- CC(NC(=O)Cn1ncc2ccsc2c1=O)C12CC3CC(CC(C3)C1)C2 (stereo unspecified)
  1.7 | -7
- O=C(COc1ccccc1OC(=O)c1ccc(Cl)cc1)NCc1ccccc1Cl
  5.0 | .

# Next part:
# The line under a structure holds: MgrA DNA FP | Sa helicase inh
- O=C(NN1CCOCC1)c1ccccc1NS(=O)(=O)c1ccc(F)cc1F
  . | 6
- CC(C)c1ccc(S(=O)(=O)N2CCN(C(=O)n3ccnc3)CC2)cc1
  . | 2
- CCC1SC(=Nc2ccc(C)cc2)NC1=O (stereo unspecified)
  -0.3 | -8
- CCN=c1scc(-c2ccc(OC)cc2)n1/N=C(\C)c1ccc(C)o1
  . | -15
- O=C(NCCc1ccccc1)c1ncn[nH]1
  -2.4 | .
- Cn1c(NC(=O)C2CC2)cc(=O)n(C)c1=O
  . | 8
- CC1CC(C)CN(C(=O)NCc2noc3ccccc23)C1 (stereo unspecified)
  -1.4 | 8
- N=c1n(Cc2ccccc2)c2ccccc2n1CC(O)c1ccccc1 (stereo unspecified)
  2.5 | 5
- CC1CCc2cc(F)ccc2N1C(=O)c1cc(S(=O)(=O)N2CCCC2)cn1C (stereo unspecified)
  . | -23
- CSc1n[nH]c(N)c1S(=O)(=O)c1ccc(Cl)cc1
  1.3 | .
- CSC1=NCCN1CCOc1ccccc1
  . | -13
- O=c1[nH]nc2n1-c1ccccc1SC2
  . | 22
- CCOC(=O)C1CCN(Cc2cccc(OC)c2O)CC1
  -5.0 | -8
- COc1ccc(-c2nc(-c3cccs3)no2)cc1OC
  0.4 | .
- COc1cccc(S(=O)(=O)Nc2ccc(C(=O)N3CCN(C(=O)c4ccco4)CC3)cc2)c1
  5.2 | 9

# Full records, quoted from the list. Screens in order: MgrA DNA FP | Sa helicase inh
# CC(NC(=O)Cn1ncc2ccsc2c1=O)C12CC3CC(CC(C3)C1)C2 (stereo unspecified) as listed: 1.7 | -7
# O=C(Nc1ccc(-c2cn3ccsc3n2)cc1)c1cccs1 as listed: . | 21

# Screens deposited in PubChem by ICCB-Longwood Screening Facility, Harvard Medical School.
